Source: PubChem
MgrA DNA FP: alters Staphylococcus aureus MgrA binding to DNA; fluorescence polarization; inhibition, %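 (about 10 µg/mL by stock and volumes)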; 0.13% of 84,000 active; AID 602314;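 active = above 50% in either of two replicates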;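 also: 0% = protein plus DNA without compound and 100% = DNA alone without protein; higher means less MgrA bound to DNA so lower polarization; one replicate is shown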
S aureus helic: S. aureus DNA helicase inhibition. inhibition, %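 (tested at about 80 µM)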. purified S. aureus helicase, fluorescence unwinding assay; about half of the hits fall short of the stated cut. 0.05% of 120,000 active. AID 485395;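 active = both duplicates at 50% or more, or one of them with a favoured structure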;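 also: 0% = mean of negative control wells and 100% = mean of positive control wells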
An asterisk follows results filed as active; . = not tested or not shown. The list is partial, so the mix of outcomes need not match the whole.

SMILES	MgrA DNA FP	S aureus helic
CC(C)Cc1nnc(NC(=O)c2ccccc2)s1	0.1	8.0
O=C(CC1Nc2ccccc2NC1=O)Nc1cccc2ccccc12 (configuration not stated)	-2.5	6.0
CN(C)c1cc(Cl)nc(N(C)C)c1C#N	-2.5	.
CCc1ccc(OCC(O)CN2CCN(CC)CC2)cc1 (configuration not stated)	.	-8.0
Cc1cccc2cc(C(c3nnnn3CCc3ccccc3)N3CCN(c4nc5ccccc5s4)CC3)c(=O)[nH]c12 (configuration not stated)	1.3	8.0
O=C(CSc1nc2ccccc2s1)c1ccccc1	.	9.0
CCN1CCCC1CNCc1ccccn1 (configuration not stated)	4.2	-8.0
COc1ccc(Oc2cccc(F)c2C#N)cc1	-0.9	.
COc1ccc(S(=O)(=O)c2cc(NS(=O)(=O)c3ccccc3)cc(C(C)C)c2O)cc1	0.2	10.0
C=CCSc1nc2c(c(=O)[nH]c(=O)n2C)n1C/C=C(\C)Cl	3.0	.
COc1ccc(C2=NCC(CSc3nnc(C(C)N(C)C)n3-c3ccccc3)S2)cc1 (configuration not stated)	.	-6.0
CC(=O)Nc1ccc2oc(C)nc2c1	.	-5.0
CCN(CC(=O)NC1CCS(=O)(=O)C1)C(=O)c1cc(OC)c(OC)c(OC)c1 (configuration not stated)	.	9.0
COc1ccc(/C=C(/NC(=O)c2ccco2)C(=O)N2CCCCCC2)cc1OC	0.2	16.0
COc1cc(CN(C(=S)NCC(=O)O)C2CCCC2)cc(OC)c1OC	-1.2	13.0
Cc1c2n(c3ccccc13)CCC2=O	-0.3	.
CCn1c(=O)c2ccccc2n(CC(=O)Nc2ccc3c(c2)OCO3)c1=O	3.8	2.0
CC1(C)CC(=O)C2=C(C1)NC(SCC(=O)Nc1ccccc1)=C(C#N)C2c1ccco1 (configuration not stated)	-1.4	4.0
CC1(C(=O)NCc2ccc3c(c2)OCO3)COC(c2ccccc2)OC1 (configuration not stated)	2.0	-1.0
N#C/C(=C\C1CC=CCC1)c1nc2ccccc2[nH]1 (configuration not stated)	-1.5	5.0
CC1CC1c1ccco1 (configuration not stated)	.	-13.0
COCCN(C(=O)Nc1ccc(Cl)c(Cl)c1)C1CCN(C(C)C)CC1	0.8	-10.0
CCOC(=O)N/N=C/c1ccc2c(c1)OCCO2	.	7.0
CCCC(=O)N1CCC(c2ccc(OC)cc2)=N1	0.3	12.0
Cc1cc(=O)c2ccc(C(F)(F)F)cc2[nH]1	-1.8	.
Next part:
SMILES	MgrA DNA FP	S aureus helic
COc1ccc(N2CCN(C(=O)CCN3C(=S)NC(C)(C)CC3C)CC2)cc1 (configuration not stated)	.	-10.0
O=C(NCc1ccco1)c1ccc2c(c1)C(=O)N(Cc1ccco1)C2=O	.	10.0
CC12CCC(C1)C(C)(C)C2NC(=O)c1cccs1 (configuration not stated)	-3.5	.
C=CCN(c1nccs1)S(=O)(=O)c1ccc(C)cc1	-1.6	11.0
O=C(CNc1ccc(F)cc1)N/N=C1\CCc2ccccc21	.	-5.0
CCc1ccc2c(c1)c1n[nH]c(=S)nc1n2C	-1.2	5.0
O=C(O)c1ccc(-c2ccc(F)cc2)s1	.	-1.0
O=C(Nc1ccccc1C(F)(F)F)C1COc2ccccc2O1 (configuration not stated)	-1.1	.
CCn1cc(CN(C)C(=S)Nc2sc3c(c2C(=O)OC)CCC(C)C3)c(C)n1 (configuration not stated)	1.7	28.0
O=C(Cn1ncc2c1-c1ccccc1OC2)N1CCCc2ccccc21	7.4	-6.0
O=CN1CCN(C(=O)Cc2ccc(Cl)cc2)CC1	-4.4	3.0
O=C(C1CCC1)N1CCN(c2ccnc3cc(Cl)ccc23)CC1	2.4	.
CCOC(=O)n1ncc(C#N)c1N	-2.3	-5.0
CCCn1c(=O)n(C)c(=O)c2c(SCc3nc(-c4cccc(Cl)c4)no3)nc(CC(C)C)nc21	.	13.0
N#CCCOC1(C#CCN2CCCC2)CCCCC1	.	-17.0
CC(=O)c1sc(-c2ccc(F)cc2)cc1N	-2.6	.
COc1ccc2nsnc2c1	-0.5	.
O=C(/C=C/c1ccc2c(c1)OCO2)Nc1ccc(S(=O)(=O)N2CCCCC2c2cccnc2)cc1 (configuration not stated)	.	8.0
CN(CC(=O)Nc1sc2c(c1C#N)CCC2)Cc1nc2ccccc2c(=O)[nH]1	.	-8.0
CCN1CCSC1=NCc1cccs1	.	-12.0
Oc1ccccc1C=Nc1ccccc1C(F)(F)F	-2.3	.
O=C1CCCN1C(=O)CSc1nnc2c(Cl)cc(Cl)cn12	.	-4.0
COc1c2c(c(CSc3nnnn3-c3ccccc3)c(OC)c1OC)C(=O)OC2	-1.5	1.0
CC1CCCCN1c1nnc(NC(=O)c2csc3c2CCCC3)s1 (configuration not stated)	.	14.0
O=C(COC(=O)c1cccs1)c1ccc(Cl)cc1	.	19.0
Next part
SMILES	MgrA DNA FP	S aureus helic
O=C1C2ON(c3ccccc3)C(c3ccco3)C2C(=O)N1Cc1ccccc1 (configuration not stated)	.	15.0
COCC(=O)N(Cc1cc2cccc(C)c2[nH]c1=O)c1ccccc1	-1.2	13.0
CCOc1cc(C(F)(F)F)cnc1C#N	0.4	.
O=c1oc2c3c(ccc2c2c1CCCC2)OCN(CCc1ccccc1)C3	.	22.0
CCCCN(C(C)C)S(=O)(=O)c1ccc(C)cc1	4.2	.
CC1CC(C)CN(C(=O)c2coc(=O)c3ccccc23)C1 (configuration not stated)	.	15.0
CC(=O)NC(=S)Nc1cccc(C#N)c1	0.6	9.0
Cc1ccccc1OC1C(=O)N(CC2CCCO2)C1c1ccc2c(c1)OCO2 (configuration not stated)	.	11.0
CC1CCc2c(sc(NC(=O)COC(=O)c3ccco3)c2C#N)C1 (configuration not stated)	.	5.0
CCn1c2ccc(C)cc2c2nc(C)sc21	-5.2	3.0
Cc1cc(N)nc2nc(C(F)(F)F)nn12	0.6	-10.0
Cc1cc(OCC(=O)N2CCOCC2)ccc1NC(=O)C1CCCCC1	0.4	-3.0
CC12CC3CC(C1)CC(NC(=O)c1ccc(Cl)cc1Cl)(C3)C2	-0.4	5.0
NNC(=O)c1c(NC(=O)c2ccccc2)sc2c1CCC2	7.7	14.0
CCOc1cc(C2C(C(=O)OCCOC)=C(C)NC3=C2C(=O)CC(c2ccc(Cl)cc2)C3)cc(Br)c1O (configuration not stated)	-0.8	.
Cc1cccc(-c2noc(CN(C(=O)CCCN3C(=O)c4ccccc4C3=O)C3CCCCC3)n2)c1	.	11.0
COc1ccc(C2C(C(=O)NCc3ccco3)CCC(=O)N2c2ccc(OC)cc2)cc1 (configuration not stated)	.	25.0
Cc1ccc(S(=O)(=O)CCc2nnc(NC(=O)c3ccc(C(C)(C)C)cc3)s2)cc1	-1.2	.
Cc1nc(C)c(-c2csc(NCc3ccccc3)n2)s1	-6.8	8.0
Cc1cc(C)c2c(N)c(C(=O)Nc3ccccc3)sc2n1	2.2	1.0
CCOC(=O)C1=C(C)N=c2s/c(=C\c3ccc(N4CCCCC4)o3)c(=O)n2C1c1ccccc1OC (configuration not stated)	0.6	.
COc1ccc(C(=O)NCCn2ccc3ccccc32)c(OC)c1	.	-17.0
CCN1CCCC1CNC(=O)Nc1c[nH]c2ccc(C)cc2c1=O (configuration not stated)	-0.9	16.0
CC(=O)N/N=C/c1c(C)[nH]n(-c2ccccc2)c1=O	.	-26.0
Cc1ccc(OC(=O)c2ccc3snnc3c2)cc1	3.2	12.0

Three compounds out of the list above, sorted by the value under S aureus helic, low to high:
SMILES	MgrA DNA FP	S aureus helic
COc1ccc(C(=O)NCCn2ccc3ccccc32)c(OC)c1	.	-17.0
Cc1ccc(OC(=O)c2ccc3snnc3c2)cc1	3.2	12.0
COc1ccc(C2C(C(=O)NCc3ccco3)CCC(=O)N2c2ccc(OC)cc2)cc1 (configuration not stated)	.	25.0

(continued)
SMILES	MgrA DNA FP	S aureus helic
CC(C)(C)c1ccc(C(=O)Nn2cnc3c(cnn3C(C)(C)C)c2=O)cc1	.	10.0
COc1ccc(NC(=O)CSc2c[nH]c3ccccc23)c(OC)c1	.	-5.0
O=C(NC1CCN(Cc2cccc3ccccc23)CC1)c1ccccc1	-2.0	.
CCCCCOc1ccc(C(=O)/C=C/C(=O)O)cc1	.	-10.0
O=C(CSc1nnc(CN2CCCCCC2=O)n1-c1ccccn1)c1ccccc1	.	3.0
Cc1cc(S(=O)(=O)NCC(C)C)ccc1OCC(N)=O	-1.1	16.0
CCC(=O)N1CCN=C1SC	0.2	13.0
COCc1[nH]c(=S)[nH]c(=O)c1C	.	0.0
O=C(OCC(=O)c1cc(Cl)ccc1Cl)c1cccc(O)c1	-1.2	17.0
CS(=O)(=O)N1CCN=C1SCc1ccccc1	.	6.0
CC(C)c1cccc(C(C)C)c1NC(=O)c1ccc2ncccc2c1	-0.4	-10.0
COC(=O)c1c(-c2cccs2)csc1NC(=O)CN1CCOCC1	.	-2.0
Cc1ccccc1C(=O)NC1CCN(CC(=O)NC2CCCCC2)CC1	0.6	-2.0
CCOC(=O)C1=C(C)N=c2s/c(=C\c3cccc(OC)c3OC)c(=O)n2C1c1cc(OC)ccc1OC (configuration not stated)	0.4	.
CCc1cccc(NC(=O)C2CCCN(S(=O)(=O)c3cccnc3)C2)c1 (configuration not stated)	4.7	16.0
CN(C(=O)CSc1ccccc1C(=O)O)C1CCCCC1	-1.9	-15.0
Cn1nc(C(C)(C)C)cc1C(=O)N1CCC(C(F)(F)F)CC1	-0.8	.
CCC(=O)N1CCc2cc(Br)cc(S(=O)(=O)CCC(=O)NCC3CCCO3)c21 (configuration not stated)	0.2	11.0
Nc1cccc(-c2nnc(-c3ccco3)o2)c1	.	10.0
CC(NS(=O)(=O)N(C)C)c1ccccc1 (configuration not stated)	-3.1	5.0
C/C=C/C(=O)Nc1ccc(-c2nc3ccc(C)cc3s2)cc1	-0.1	14.0
CCNc1nc(NCC)n2c(SCC(=O)/C=C3/N(C)c4ccccc4C3(C)C)nnc2n1	.	-28.0
COc1ccc(CC(=O)NN2CCN(c3ccccc3)CC2)cc1	-0.7	8.0
CC(C)CCNc1ncnc2c1sc1nc3c(cc12)COC(C)(C)C3	0.9	-7.0
C=CCN1C(=O)C(Cc2cccc(Cl)c2)SC1=Nc1ccc(C(=O)O)cc1 (configuration not stated)	-1.3	6.0

Part of the list above in order of count of non-hydrogen atoms, falling:
SMILES	MgrA DNA FP	S aureus helic
CCOC(=O)C1=C(C)N=c2s/c(=C\c3cccc(OC)c3OC)c(=O)n2C1c1cc(OC)ccc1OC (configuration not stated)	0.4	.
CCNc1nc(NCC)n2c(SCC(=O)/C=C3/N(C)c4ccccc4C3(C)C)nnc2n1	.	-28.0
O=C(CSc1nnc(CN2CCCCCC2=O)n1-c1ccccn1)c1ccccc1	.	3.0
CCC(=O)N1CCc2cc(Br)cc(S(=O)(=O)CCC(=O)NCC3CCCO3)c21 (configuration not stated)	0.2	11.0
CC(C)(C)c1ccc(C(=O)Nn2cnc3c(cnn3C(C)(C)C)c2=O)cc1	.	10.0
Cc1ccccc1C(=O)NC1CCN(CC(=O)NC2CCCCC2)CC1	0.6	-2.0
CC(C)c1cccc(C(C)C)c1NC(=O)c1ccc2ncccc2c1	-0.4	-10.0
COC(=O)c1c(-c2cccs2)csc1NC(=O)CN1CCOCC1	.	-2.0
Cn1nc(C(C)(C)C)cc1C(=O)N1CCC(C(F)(F)F)CC1	-0.8	.
CN(C(=O)CSc1ccccc1C(=O)O)C1CCCCC1	-1.9	-15.0
Cc1cc(S(=O)(=O)NCC(C)C)ccc1OCC(N)=O	-1.1	16.0
CCCCCOc1ccc(C(=O)/C=C/C(=O)O)cc1	.	-10.0
CS(=O)(=O)N1CCN=C1SCc1ccccc1	.	6.0
CC(NS(=O)(=O)N(C)C)c1ccccc1 (configuration not stated)	-3.1	5.0
COCc1[nH]c(=S)[nH]c(=O)c1C	.	0.0
CCC(=O)N1CCN=C1SC	0.2	13.0

(listing goes on)
SMILES	MgrA DNA FP	S aureus helic
Cc1cccc(NCN2C(=O)C3C4C=CC(C4)C3C2=O)c1 (configuration not stated)	3.0	8.0
Cc1ccccc1C(=O)Nc1ccc2c(c1)n(C)c(=O)c(=O)n2C	.	-8.0
COc1cc(C(=O)OCc2nnc(-c3ccccc3)o2)ccc1OCC(=O)Nc1ccc(F)cc1	.	-8.0
Cc1noc(C)c1C(=O)O/N=C(/c1cccs1)C(C)(C)C	.	3.0
CC1=NNC(=O)C1CCc1ccncc1 (configuration not stated)	0.8	2.0
COc1ccccc1NC(=O)c1cc(S(=O)(=O)N2CCCCC2)ccc1F	.	7.0
Cc1cccc(-c2oc(C)c(C)[n+]2[O-])c1	-1.7	-1.0
COc1ccc(C2CC(=O)C3=C(C2)Nc2ccccc2NC3c2coc3ccc(C)cc3c2=O)cc1 (configuration not stated)	-0.9	.
O=C1C(c2sc(=S)n(-c3ccccc3)c2O)=Nc2ccccc21	0.7	7.0
O=S(=O)(c1ccccc1)c1cnc2cc3c(cc2c1N1CCCCC1)OCCO3	.	11.0
Cc1nc2cc(CO)ccc2s1	.	6.0
O=C(c1cccc2c1C(=O)N(Cc1cccnc1)C2)N1CCN(c2ccccc2)CC1	.	10.0
C/C(O)=C/C(=O)Nc1cccc(C(F)(F)F)c1	-0.1	-19.0
O=C(NCC(=O)N1CCC(N2CCCCC2)CC1)C1CCCCC1	.	8.0
CN(CC(=O)Nc1ccccc1Sc1ccccc1)C1CCS(=O)(=O)C1 (configuration not stated)	.	-4.0
CC(C(=O)c1ccccc1)C1(O)C(=O)Nc2ccccc21 (configuration not stated)	4.5	1.0
O=C(O)COc1c(I)cc(Cl)c2cccnc12	.	12.0
O=C(Nc1cccc(Cl)c1)n1ncc2cc(Cl)ccc21	1.2	-13.0
O=C(O)CC1(O)C(=O)N(Cc2ccccc2)c2ccccc21 (configuration not stated)	-3.5	5.0
CCOC(=O)C1=C(C)N=c2s/c(=C\c3ccc(O)c(OCC)c3)c(=O)n2C1c1ccc(OC)cc1 (configuration not stated)	-1.1	.
Cc1nc2c(sc3nc4c(cc32)COC(C)(C)C4)c(=O)n1Cc1ccco1	-1.1	2.0
Cc1ccc(C)c(Cn2nnc3c2nc(C)n2c(=O)[nH]nc32)c1	.	-4.0
